Polio RdRp inh = poliovirus RdRp elongation inhibitors, primary screen, biochemical, fluorescence polarization, total intensity; 150,000 compounds, 0.66% hits; % elongation, % (compound at 16.7 µg/mL); Genome polyprotein (Poliovirus type 1 (strain Mahoney)), P03300; poliovirus polymerase elongation; stronger effect = lower value; AID 588519, 2011; in the data active = % elongation below about 90%; also: some results filed as inactive read as strong as hits
Target sequence (P03300 1749-2209 limits assumed): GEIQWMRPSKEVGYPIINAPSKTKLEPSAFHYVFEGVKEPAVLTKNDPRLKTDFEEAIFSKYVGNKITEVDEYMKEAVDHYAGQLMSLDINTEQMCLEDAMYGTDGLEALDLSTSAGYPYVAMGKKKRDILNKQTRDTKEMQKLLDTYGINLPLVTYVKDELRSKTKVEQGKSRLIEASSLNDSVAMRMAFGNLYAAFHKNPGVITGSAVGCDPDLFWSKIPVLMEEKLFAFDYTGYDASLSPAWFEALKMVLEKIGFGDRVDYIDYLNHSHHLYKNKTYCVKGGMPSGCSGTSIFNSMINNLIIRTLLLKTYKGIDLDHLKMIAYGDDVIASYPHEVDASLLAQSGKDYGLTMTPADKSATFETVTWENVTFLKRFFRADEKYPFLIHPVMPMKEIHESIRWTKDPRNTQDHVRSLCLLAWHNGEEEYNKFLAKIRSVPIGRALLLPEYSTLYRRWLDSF
MenB inh = M. tuberculosis MenB inhibitors, primary screen, biochemical, absorbance; inhibition, %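 (about 12 µg/mL by stock and volumes)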; 100,000 compounds, 0.43% hits; 1,4-dihydroxy-2-naphthoyl-CoA synthase (Mycobacterium tuberculosis (strain ATCC 25618 / …; MenB enzyme assay, absorbance read-out; some hits fall short of the stated cut;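 active = mean of two replicates above 30%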;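 also: 0% = no compound and 100% = wells with inactive enzyme; the first replicate is given; strong numbers were not always called active; inactives centre near -10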
Mtb MbtI inh = MbtI salicylate synthase inhibitors, primary screen, biochemical, fluorescence intensity; P9WFX0; purified MbtI enzyme, fluorescence intensity read-out; inhibition, %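 (about 17 µg/mL by stock and volumes)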; 100,000 compounds, 0.89% hits;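 active = above 50% in both replicates, above 80% if mildly self-fluorescent; inactive = the rest, strongly fluorescent compounds included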;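 also: 0% = mean of negative and 100% = mean of positive controls; one replicate is shown; some compounds called inactive have numbers as strong as hits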
Target sequence (P9WFX0 whole entry, looked up): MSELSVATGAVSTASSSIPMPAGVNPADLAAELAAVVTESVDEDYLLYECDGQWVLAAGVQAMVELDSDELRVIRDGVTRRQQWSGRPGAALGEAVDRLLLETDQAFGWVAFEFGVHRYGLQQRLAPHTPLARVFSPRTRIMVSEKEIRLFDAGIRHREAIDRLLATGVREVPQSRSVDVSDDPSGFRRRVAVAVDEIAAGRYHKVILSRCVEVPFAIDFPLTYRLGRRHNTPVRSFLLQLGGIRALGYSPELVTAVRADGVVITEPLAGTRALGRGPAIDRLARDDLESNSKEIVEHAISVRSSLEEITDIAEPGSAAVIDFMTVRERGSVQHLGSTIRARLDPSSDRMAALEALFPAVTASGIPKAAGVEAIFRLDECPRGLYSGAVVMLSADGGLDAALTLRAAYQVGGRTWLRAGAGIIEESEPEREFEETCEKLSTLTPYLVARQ
Polio RdRp inh intensity = further read-out of Polio RdRp inh, marked with its call; % elongation; measured here: total intensity read-out; formula for this scale not given here;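 total fluorescence in place of polarization; lower means less elongation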
The depositor's hits bear a star; / = not tested or not shown; & = joins results of further samples.

compound	Mtb MbtI inh	Polio RdRp inh	MenB inh	Polio RdRp inh intensity
COC(=O)c1ccccc1NC(=O)CSc1ncn[nH]1	28	107	-18	114
Cc1n[nH]c(C)c1N	19	100	-31	102
O=c1cc(CSc2ccc(Cl)cc2)[nH]c(=S)[nH]1	58*	99	-79	104
CC1CCCC(C)N1CCCNc1ccc2nnc(-c3ccccc3)n2n1 (configuration not stated)	16	101	-10	108
CN1/C(=C/P(=O)(N(C)C)N(C)C)C(C)(C)c2ccccc21	24	104	-8	103
CCCN(CCC)C(=O)Nc1cccc(F)c1	-25	102	-13	104
Cc1noc(COc2ccccc2OCC(O)CN2CCN(C)CC2)n1 (configuration not stated)	/	103	3	101
Cc1cc(C)nc(NC2=NCCN2C(=S)Nc2c(C)cccc2C)n1	-3	100	4	106
COc1ccc(Br)cc1CNC(=O)C1CCN(C(=O)N(C)C)CC1	11	103	-8	107
CC1CCCCN1C(=O)Cn1c(=O)oc2ccccc21 (configuration not stated)	-5	102	-2	100
Cn1c(CSc2ccnc3cc(Cl)ccc23)nnc1SCC(=O)c1ccc(Cl)s1	-10	102	-21	110
CCOc1ccccc1OCC(=O)OCC1CC1	-4	101	7	107
Cc1sc(NC(=O)C2COc3ccccc3O2)c(C(N)=O)c1C (configuration not stated)	6	106	-6	105
CC(C)Cc1cc(C(=O)Nc2cccc(Cl)c2)no1	0	100	-25	101
CC(=NCCO)c1c(-c2ccccc2)[nH]n(-c2nc3ccccc3s2)c1=O	/	103	-4	114
COc1nc(-c2ccccc2)cc(-c2ccc(C)cc2)n1	16	103	-33	101
Cc1cc(C(=O)Nc2cccc(C(F)(F)F)c2)on1	-10	104	-4	98
COC(=O)c1ccccc1S(=O)(=O)N1CCC(C(=O)OCC(=O)Nc2ccccc2F)CC1	-1	100	-9	107
Cc1nc(-c2n[nH]c(=S)o2)cs1	26	99	-5	101
CCCn1nc(C(=O)N2CCN(CC)CC2)c2ccccc2c1=O	-11	103	0	110
Cn1c(NNC(=O)C(C)(C)Oc2ccc(Cl)cc2)cc(=O)n(C)c1=O	2	104	-47	106
CC(C)CSc1nsc2nc(=O)c(C=C3C=CC(=O)C=C3)c(N)n12	7	103	-20	104
CCN(c1ncnc2c1oc1ccccc12)C1CCCCC1	37	107	-42	96
O=C(CCn1c(=O)[nH]c2ccccc2c1=O)N1CCCCC1	-19	104	4	107

Grouped by structure: the compounds so far containing two or more sulfur atoms.
compound	Mtb MbtI inh	Polio RdRp inh	MenB inh	Polio RdRp inh intensity
O=c1cc(CSc2ccc(Cl)cc2)[nH]c(=S)[nH]1	58*	99	-79	104
Cn1c(CSc2ccnc3cc(Cl)ccc23)nnc1SCC(=O)c1ccc(Cl)s1	-10	102	-21	110
Cc1nc(-c2n[nH]c(=S)o2)cs1	26	99	-5	101
CC(C)CSc1nsc2nc(=O)c(C=C3C=CC(=O)C=C3)c(N)n12	7	103	-20	104

Next section:
compound	Mtb MbtI inh	Polio RdRp inh	MenB inh	Polio RdRp inh intensity
CCn1c(C)nc2cc(S(=O)(=O)N3CCOCC3)ccc21	-6	104	-24	96
CCN(C1CCCCC1)S(=O)(=O)c1cc(F)ccc1OC	3	100	3	105
CCOC(=O)N1CCN(C(=O)c2cc3c(=O)n(C)c4ccccc4c3n2C)CC1	6	103	3	100
COc1ccc(-c2cc(=O)c3cc(OC(=O)c4ccc(OC)c(OC)c4)ccc3o2)cc1	12	103	1	100
CC(c1ccccc1)N1CC(O)=C(c2nc3ccccc3[nH]2)C1=N (configuration not stated)	-10	105	-14	112
COc1cccc(OC)c1C1=NCC(=O)Nc2c1oc1ccc(Br)cc21	4	103	-11	96
CCN(Cc1ccccc1)S(=O)(=O)c1nc2nc(C)c(C)c(C)n2n1	/	108	-14	109
COc1cccc(CNC(=O)C23CC4CC(CC(O)(C4)C2)C3)c1	2	100	-7	102
CCOC(=O)c1c(C)[nH]c(NC(=O)Nc2ccccc2Br)c1C	-5	103	-29	104
O=C(Oc1ccc(-c2ccccc2)cc1)c1cccs1	2	101	-4	104
CCOc1ccccc1N1CC(c2nc3ccccc3n2CCCOc2c(C)cccc2C)CC1=O (configuration not stated)	-3	101	-26	97
CCCCn1nnc(NC(=O)CC23CC4CC(CC(C4)C2)C3)n1	-11	100	-10	102
Clc1ccc(CSc2nnc([C@@H]3CCCN3)o2)cc1	0	104	18	102
O=C(OC1CCCCC1)C1CCN(S(=O)(=O)c2cccc3nsnc23)CC1	-7	101	-10	106
CC[C@@]1(O)C(=O)OCc2c1cc1n(c2=O)Cc2cc3c(O)cccc3nc2-1	-10	99&94	11	102&105
Cc1cc2c(n1-c1ccc(C(=O)NCC3CCCO3)cc1)CCC(C)C2 (configuration not stated)	-13	103	-14	117
CCOC(=O)C1CCC(CNC(=O)N2CCSc3ncccc32)CC1 (configuration not stated)	2	102	-9	101
C=CCNC(=O)C(c1ccccc1)c1ccccc1	0	101	2	100
O=C(NC1CCSC1=O)C1CCCCC1 (configuration not stated)	4	100	-7	101
O=C(O)C(c1ccc(F)cc1)N1Cc2ccccc2C1=O (configuration not stated)	17	101	-16	104
CCc1ccc(NC(=O)CCc2nnc3ccc(N(CC)CC)nn23)cc1	-17	99	8	101
CC(C)NS(=O)(=O)c1cccs1	-16	102	7	103
COc1ccccc1NC(=O)N(CC#N)c1ccccc1	-34	104	9	97
CCOCCCn1c(SCc2nc3sc(C(=O)O)c(C)c3c(=O)[nH]2)nnc1-c1ccc(Cl)cc1	-27	107	-12	108
COc1cccc(C(=O)Nc2ccccc2SCc2cc(=O)n3c(C)csc3n2)c1	39	101	-14	102
CCOc1cc(C2C3=C(CC(C)(C)CC3=O)N(C)C3=C2C(=O)CC(C)(C)C3)ccc1O	8	101	-77	103
COc1ccc(OCC(O)CNC(C)c2ccccc2)cc1 (configuration not stated)	-5	99	/	100
CC(C)n1ncc2c1N=C(c1ccccc1)N(C1CC1)C21CCCCC1	2	106	-10	95
N#CC1=C(N=Cc2ccccc2O)CCC1	-3	102	-11	103
COc1cc2c(cc1OC)CN(CC(=O)Nc1ccccc1C(=O)NC1CC1)CC2	13	101	-10	94
COc1ccc(-n2c(C)cc(CNC(=O)NC3CCCC3)c2C)cc1	-16	100	5	106
CSc1nnc(N2C(=O)CC(c3ccccc3)C3=C2CCCC3=O)s1 (configuration not stated)	/	106	-17	108
O=C(/C=C/c1ccco1)N1CCN(Cc2nc3sc4c(c3c(=O)[nH]2)CCCC4)CC1	6	104	-33	104
CCOC(=O)c1cc(-c2ccnn2S(=O)(=O)c2ccc(C)cc2)on1	-5	96	-23	102
Cc1cc(O)c2/c(=N\N)c(-c3csc(C)n3)coc2c1	-14	106	-20	109
O=C(N/N=C/C=C/c1ccco1)c1cccs1	26	102	5	105
C=CCNC(=O)C1CC2CCCC(C1)C2=O (configuration not stated)	-11	102	/	107
CCCNS(=O)(=O)c1ccc2c(c1)oc(=O)n2C	0	104	-11	106
Cc1ccc(SC(C)C(=O)Nc2ccccc2C#N)cc1C (configuration not stated)	28	105	11	108
CN1C(=O)/C(=C\c2ccncc2)SC1=S	3	101	-1	103
COC(=O)C1C(=O)NC(SCC(=O)NCc2ccccc2)=C(C#N)C1c1ccccc1F (configuration not stated)	12	104	-34	105
Nc1ccnn1Cc1ccco1	6	101	-48	101
CN(CCO)C12CC3CC(CC(C3)C1)C2	-9	99	-21	102
COc1cccc2cc(C(=O)Nc3ccccc3-c3nnn(CC(=O)NC(C)(C)C)n3)c(=O)oc12	/	106	-3	110
COc1ccc(Br)cc1CNC(=O)c1ccc(N2C(=O)Cn3c(cc4sccc43)C2=O)cc1	-4	100	1	103
O=C(NCCCO)c1ccc2[nH]c3ccccc3c2c1	129	101	18	104
C=CCn1c(CNC(=O)c2ccccc2)nc2ccccc21	/	105	-13	107
CCOC(=O)N1CCN(C(=O)COc2cccc3c2CCN(CC)C3=O)CC1	-3	100	-8	103
CCN(CC)C(=O)c1nc(-c2ccc(Cl)cc2)n2c1CCCCC2	1	103	-20	103
CCNC(=O)C1CCN(c2nn3cc(-c4ccc(F)cc4)nc3s2)CC1	-6	104	-10	105
COCCOc1ccc(C(F)(F)F)cc1Nc1nc2ccccc2o1	18	87*	-53	94*
O=C(OCc1cc(=O)oc2cc3c(cc12)CCC3)c1ccc(Br)o1	-5	98	-2	102
CCCCOc1ccc(NC(=O)CS(=O)CC(=O)Nc2ccc(OC)cc2)cc1 (configuration not stated)	-4	101	-29	103
CNC(=O)c1ccccc1Nc1ccc(SC(F)F)cc1	11	101	-9	102
N#CC1=C2SCN(c3ccccc3)CN2C(=O)CC1c1ccccc1 (configuration not stated)	86	100	-20	102
CCc1cccc(CC)c1NC(=O)Cn1c(C(=O)OC(C)C)cc2c1ccn2C	14	101	-59	99
Cc1ccc2nc(CC(=O)O)[nH]c2c1	3	103	-53	104
COc1ccc(-c2noc(CNC(=O)Nc3cccc(C)c3)n2)cc1	-5	102	-14	100
CCOC(=O)c1ccc(S(=O)(=O)Nn2cc(-c3ccccc3)[nH]c2=S)cc1	-5	102	-11	105
COc1ccc(SCc2csc(NC(C)=O)n2)cc1	-3	100	2	104

The final 2 entries of the part above lead into the next.
compound	Mtb MbtI inh	Polio RdRp inh	MenB inh	Polio RdRp inh intensity
CCOC(=O)c1ccc(S(=O)(=O)Nn2cc(-c3ccccc3)[nH]c2=S)cc1	-5	102	-11	105
COc1ccc(SCc2csc(NC(C)=O)n2)cc1	-3	100	2	104
O=S(=O)(c1ccc(-c2cc(C(F)(F)F)on2)s1)N1CCc2c([nH]c3ccc(F)cc23)C1	-14	111	-20	106
NC(=O)N(CCC(=O)O)c1ccccc1	14	102	-6	102
Oc1cc(O)c2c(c1)OC(c1ccc(O)c(O)c1)C(O)C2 (configuration not stated)	-2	103	-9	105
CCN1C(=O)/C(=C/c2c(NC(C)C)nc3ccccn3c2=O)SC1=S	5	112	-17	127
O=C(Nc1ccc(-c2nnc3n2CCCCC3)cc1)c1ccccc1	0	106	4	115
CC1CCN(CC(=O)Nc2ccccc2C(F)(F)F)CC1	-3	103	-32	102
Cn1c(=O)n(CCc2ccccc2)c2ccccc21	7	102	6	104
Cc1cc(C)cc(-n2cc3c(=O)n(C)c(=O)n(C)c3c2)c1	-7	100	-11	104
CS/C(=N\S(=O)(=O)c1ccc(C)cc1)N1CCN(C(=O)c2cccs2)CC1	-3	108	-12	102
C=CCn1c(C)cc(C(=O)CSc2nnc3n2CCCCC3)c1C	5	101	1	99
O=C(Cn1ccc2cc(S(=O)(=O)N3CCCCC3)ccc21)N1CCCCC1	-9	104	-13	103
CC12CCC(=O)N1C(C(=O)OCC(=O)Nc1sccc1C#N)CS2 (configuration not stated)	-12	103	-30	119
COC(=O)c1cc(C)sc1NC(=O)C1CC(=O)NN1Cc1ccccc1 (configuration not stated)	12	102	-67	102
Cc1ccc(NC(=O)/C=C2\SC(=O)NC2=O)cc1	4	98	-4	96
O=C1Nc2cc(Cl)ccc2SC2CCCCC2O1 (configuration not stated)	-10	101	9	102
CC(C)Cn1c(SC(C)C(N)=O)nc2ccccc21 (configuration not stated)	6	107	7	102
CC1=C(CCN2CCN(C/C=C/c3ccccc3)CC2)C(C)(C)CCC1	3	101	-25	103
Cc1nc2ccc(NC(=O)N3CCSCC3)cc2s1	/	108	-21	100
CCN1CCN(/C=N/c2nc3c(s2)CCCC3)CC1	13	104	7	109
CCOC(=O)N1CCC(NC(=O)CS(=O)(=O)Cc2nc(-c3cccc(OC)c3)oc2C)CC1	4	100	5	105
CCn1nc(C)c(NC(=O)c2cc(Br)ccc2Cl)c1C	-11	100	-2	100
O=C(c1ccc(Br)cc1)N1Cc2ccccc2NC1=S	/	95	-15	91
c1ccc2c(c1)ncn2CCC1CCCCC1	-8	98	-11	103
N#Cc1nc2c(S(=O)(=O)c3ccc(Cl)cc3)c(N)n(Nc3cccc(Cl)c3)c2nc1C#N	4	103	-28	106
COc1cc(/C=c2/sc3nc4ccccc4n3c2=O)ccc1O	-6	120	-30	122
Cc1ccc(-c2csc3ncn(-n4c(C)ccc4C)c(=O)c23)cc1	-4	98	9	105
N#Cc1c(SCC(=O)N2CCOCC2)nsc1SCC(=O)N1CCOCC1	0	104	-12	102
COC(=O)c1cn(C(=O)c2ccccc2)c2ccccc12	0	104	-29	106
O=C(NCCCN1CCOCC1)C1CC(c2ccccc2O)=NO1 (configuration not stated)	-2	100	-6	102
CC(Sc1nnc(-c2cccc(Cl)c2)n1N)C(=O)NC1CCCCC1 (configuration not stated)	-8	111	-13	112

Screening data (PubChem BioAssay)
